# High-throughput results: PubChem BioAssay, several laboratories
# BJeLR lethal – BJeLR cell viability loss; BJeLR (HRASV12) viability, CellTiter-Glo ATP luminescence, 48 h; reference of the scale not given here; inhibition, % (no concentration beside the values); 300,000 compounds, 0.17% hits; AID 1554;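 active = replicate mean above 50%; inconclusive = above 50% but judged a plate artefact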;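 note: 50 nL library stock added to about 25 µL; numbers are from one replicate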
# RN4220 kill – kills Staphylococcus aureus RN4220; AID 1259311; S. aureus RN4220 growth, OD600, 16 h; inhibition, % (concentration not given with the values); 330,000 compounds, 0.33% hits;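 active = z-score of -3 or lower and OD600 up to 0.18 on both plates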;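 note: plate controls were untreated cells for no effect and reference antibiotic for full effect; stock transfer was 100 nL into about 80 µL; one replicate is shown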
# Mtb hypoxia inh – reduces hypoxia-regulated biosensor signal in M. tuberculosis; AID 1159583; fluorescence inhibition, % (test concentration not listed); M. tuberculosis hypoxia-regulated fluorescent reporter, fluorescence; 300,000 compounds, 0.1% hits;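 active = 35 to 45% if threefold the growth effect, above 45% if 1.5-fold the growth effect; inactive = the rest, general growth blockers included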;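 note: wells of about 50 µL received 100 nL stock; 0% = vehicle wells and 100% = reference inhibitor wells; whole bacteria with a GFP reporter of the hypoxia response; strong numbers were not always called active; many hits fall short of the cut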
# Sa ugtP lethal – compounds lethal to S. aureus RN4220 ugtP deletion mutant; OD600 growth, 16 h; some inactives read as strong as hits; growth inhibition, % (concentration not given with the values); 330,000 compounds, 0.54% hits;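 active = z-score under -3 and OD600 up to 0.15 on both plates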;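 note: plate controls were untreated wells for no effect and antibiotic for full effect; wells of about 80 µL received 100 nL stock; the first replicate is given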
# Autofluor counter – counter-screen for toxin protease inhibitors: compound fluorescence | compound autofluorescence counterscreen, microsphere flow cytometry; active compounds read high | fluorescence intensity (no concentration beside the values) | 360,000 compounds, 3.1% hits | AID 624483;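 active = at least 3 SD above the mean of all compounds, about 16000 in these data; inconclusive = too few beads counted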;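 note: 100 nL of 1 mM stock went into each well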
# PrP UTR inh – inhibition of PrP 5' UTR reporter expression; cell-based PrP 5' UTR mRNA reporter, plate reader; inhibition, % (no concentration beside the values); 340,000 compounds, 0.35% hits;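 active = every replicate at 50% or more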;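 note: 0 = median of the neutral control wells; tested in H4 reporter cells; numbers are from one replicate; inactives centre near -14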
# Mtb hypoxia inh growth – further read-out of Mtb hypoxia inh, marked with its call; growth inhibition, %; measured here: M. tuberculosis growth (absorbance);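 0% = vehicle and 100% = reference antibiotic; read after six days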
# * hit, by the source's call; u = inconclusive; x = not tested or not shown; & = joins results of further samples.
SMILES,BJeLR lethal,RN4220 kill,Mtb hypoxia inh,Mtb hypoxia inh growth,Sa ugtP lethal,Autofluor counter,PrP UTR inh
Cc1cc(C)n(CC(O)COc2cccc(OCC(O)Cn3nc(C)cc3C)c2)n1 (configuration not stated),-1,0.6,x,x,-7,4220,-16
CCOCCCNC(=O)c1cc2c(=O)[nH]c3ccccc3c2s1,9,-0.2,12,3,0,3749,-28
CCCCn1c(SCC(=O)NCCOC)nc2ccc(N3CCOCC3)cc2c1=O,1,1.7,3,0,3,x,-8
COc1cccc(C2CC(C(F)(F)F)n3ncc(C(=O)O)c3N2)c1 (configuration not stated),9,4.6,5,10,-1,2534,-25
O=C(c1cc(Cl)ccc1Cl)N1CCN(c2ccccn2)CC1,-5,4.6,2,10,1,5667,-24
O=C(Nc1cccnc1)c1cn(-c2ccccc2)nc1-c1cccs1,2,-3.0,8,5,-10,13409,-48
O=C(c1ccc(CS(=O)c2ccccc2Cl)o1)N1CCN(c2ccccc2)CC1 (configuration not stated),43,x,x,x,x,4214,29
CCCOc1ccc(N2C(=O)CC(SCCc3nc4ccccc4[nH]3)C2=O)cc1 (configuration not stated),-3,1.9,-2,-2,2,4124,-17
CCC(C(=O)NCc1cccs1)n1nc(C)n2c(cc3occc32)c1=O (configuration not stated),3,1.8,-4,-3,1,4933,-2
CCOc1cccc(C(=O)Nc2ccc(N3CCCC3)cc2)c1,14,1.5,2,-3,5,2546,-21
Cc1ccc(-n2nc3ccc(N)cc3n2)c(C)c1,-19,4.2,3,-5,11,2976,39
COc1cc(-c2nc(C(=O)NC3CCN(Cc4ccccc4)CC3)cc3c2[nH]c2ccccc23)cc(OC)c1OC,5,38,x,x,23,6108,-2

# Some of these compounds in order of length of the SMILES, descending.
SMILES,BJeLR lethal,RN4220 kill,Mtb hypoxia inh,Mtb hypoxia inh growth,Sa ugtP lethal,Autofluor counter,PrP UTR inh
COc1cc(-c2nc(C(=O)NC3CCN(Cc4ccccc4)CC3)cc3c2[nH]c2ccccc23)cc(OC)c1OC,5,38,x,x,23,6108,-2
Cc1cc(C)n(CC(O)COc2cccc(OCC(O)Cn3nc(C)cc3C)c2)n1 (configuration not stated),-1,0.6,x,x,-7,4220,-16
CCOCCCNC(=O)c1cc2c(=O)[nH]c3ccccc3c2s1,9,-0.2,12,3,0,3749,-28
O=C(c1cc(Cl)ccc1Cl)N1CCN(c2ccccn2)CC1,-5,4.6,2,10,1,5667,-24
Cc1ccc(-n2nc3ccc(N)cc3n2)c(C)c1,-19,4.2,3,-5,11,2976,39

# Next part
SMILES,BJeLR lethal,RN4220 kill,Mtb hypoxia inh,Mtb hypoxia inh growth,Sa ugtP lethal,Autofluor counter,PrP UTR inh
CCOC(=O)c1c(NC(=O)Cn2nc(C(=O)O)c3ccccc3c2=O)sc(CC)c1C,-3,8.7,10,12,4,4473,-34
Cc1ccc(N2C(=O)c3ccc(N)cc3C2=O)cc1,-1,7.0,8,13,-5,9875,-49
CC(=O)Nc1ccc(C2(O)COc3ccccc3O2)cc1 (configuration not stated),-1,-4.9,1,3,4,4254,-21
CNc1nnc(-c2ccc(OC)cc2)s1,22,5.2,17,4,-1,4288,-34
COc1cc(-c2nc3ccccn3c2N=Cc2ccccc2)ccc1O,x,-3.8,2,-6,-3,x,x
COc1ccc(C(=O)COC(=O)CCNS(=O)(=O)c2ccccc2)c(OC)c1,5,3.4,0,3,1,u,-22
COc1ccccc1N1CCN(c2ncnc3nc[nH]c23)CC1,-9,5.0,12,3,11,5903,-11
O=C(COC(=O)c1cccnc1Cl)NCc1cccs1,13,2.3,13,3,5,4468,-21
CCN(CC(=O)NCc1cccs1)C(=O)/C=C/c1cccc(Cl)c1Cl,-5,-2.0,5,3,-3,5408,-4
NC(=O)C1(N2CCCCC2)CCN(CC(=O)Nc2cc(Cl)ccc2Cl)CC1,1,2.5,2,7,1,24349*,-19
CC(Nc1oc(-c2ccco2)nc1C#N)c1ccccc1 (configuration not stated),-5,2.9,5,4,-1,2599,-13
CCCCn1nc(NC(=O)CC(C)C)c2cc3cc(OC)ccc3nc21,-3,-4.1,-8,-3,-3,4158,9
COc1ccccc1NC(=O)Nc1ccc2c(c1)nnn2C,7,5.2,7,10,3,2589,-44
COC(=O)c1ccc(NC(=S)N2CCC(C(N)=O)CC2)cc1,2,3.6,10,3,-2,2398,-12
COc1cccc(Cn2nnc(C(=O)Nc3cc(C)ccc3OC)c2N)c1,-5,0.5,x,x,15,4485,-12
C=CCN(CC=C)CCOc1cccc(Oc2ccccc2)c1,1,0.5,x,x,81,2552,-7
Cc1ccc(SCCNC(=O)c2ccccc2)cc1,-9,4.9,3,8,-9,4365,-26
O=C(Oc1cccc(N2C(=O)CCC2=O)c1)C1CC(=O)N(c2ccc(F)cc2)C1 (configuration not stated),3,2.9,3,4,-2,9966,-10
Cc1ccc(Oc2ncccc2COC(=O)Nc2ccccc2C)cc1,-11,-0.6,0,7,12,4315,-19
CSc1ncc(C(=O)Nc2ccccc2F)c(-c2ccccc2)n1,2,0.5,0,11,-6,3819,11
NC(=O)c1ccc(NC(=O)CSC(=O)c2ccccc2)cc1,x,2.6,-2,4,6,u,-4
COc1cccc(N2C(=O)CC(N3CCN(C(=O)c4ccco4)CC3)C2=O)c1 (configuration not stated),10,-0.4,1,10,-5,3931,9
Cc1ccccc1CSCCNC(=O)COc1ccc(Cl)cc1,11,-7.3,8,0,-9,8142,-13
CC12COC3(C(=O)Nc4ccc5ccccc5c4)CC1CCC32C (configuration not stated),-3,-4.2,-15,-16,3,2563,-50
O=C(NNc1cccc(Cl)n1)Nc1cccc(C(F)(F)F)c1,12,1.5,5,0,-4,2413,-8
CCOC1OC(C(=O)N2CCN(Cc3ccccc3)CC2)=CC(c2coc3ccccc3c2=O)C1CCCO (configuration not stated),x,0.8&8.8,-7&5,10&8,-2&-10,x,x
CN1CCC(N(C)C(=O)COc2ccc(S(=O)(=O)N3CCOCC3)cc2)CC1,14,2.5,0,-11,1,4372,-20
N#CCC(=O)NN=C1CCCCC1C1CCCCC1 (configuration not stated),x,-1.3,-2,-1,2,x,x
COCCCNS(=O)(=O)c1ccc2c(c1)OCCO2,-13,6.8,15,3,17,3079,-21
Cc1nn(CC(=O)NCc2cccc(F)c2)c(=O)c2cccn12,-5,1.4,14,5,4,6032,-11
COC(=O)c1c(NC(=O)c2ccco2)sc2c1CCN(C(C)C)C2,8,3.6,1,5,14,4464,-16
O=C(CSc1nc2sc3c(c2c(=O)n1-c1ccccc1)CCCC3)NN=Cc1ccc(C(=O)O)cc1,x,1.6,-1,13,-5,x,x
COc1ccc(-c2cc(C(=O)Nc3c(C)n(C)n(-c4ccccc4)c3=O)c3ccccc3n2)cc1OC,14,0.3,9,0,0,4565,-23
CCn1c(C)c(C)c2cc(C(=O)N3CCc4ccccc4C3)ccc21,3,3.2,2,1,-7,3947,-10
O=c1c2c3c(sc2nc2n1CCCCC2)CCC3,-12,-11,9,7,-1,2465,-22
Cn1nc(Oc2ncc(C(F)(F)F)cc2Cl)cc1C(F)(F)F,4,4.4,-4,-1,2,3322,-18
Cc1nc2ccc(S(=O)(=O)Nc3ccccc3C)cc2s1,-6,13,11,2,0,17531*,-19
Cn1c(SCC(=O)c2ccccc2)nnc1C1CC1,-7,-0.5,2,5,-1,3067,-19
CCOC(=O)C1CCN(C(=O)Cn2nc(CC)n3cccc3c2=O)CC1,-11,3.9,-7,-4,6,5381,-4
O=C1/C(=C/c2cccnc2)Oc2cc(OS(=O)(=O)c3ccc(F)cc3)ccc21,0,6.6,5,6,-7,11517,-30
COc1ccccc1N1CCN(C(=O)CSc2nc(-c3ccccc3)cc(=O)[nH]2)CC1,-4,3.2,x,x,-4,4573,-29
COc1cc(SC)ccc1C(=O)OCC(=O)N1CCN(C(C)=O)CC1,9,2.5,6,0,0,x,-12
CC(=NNC(=O)CN1CCN(Cc2ccccc2Cl)CC1)c1ccncc1,x,3.7,8,4,5,x,x
CNC(=S)NNC(=O)c1sccc1OCc1ccc(C)cc1,-7,4.2,6,5,-5,7905,-30
Cc1ccc(-c2nnc(Nc3ccc(C(N)=O)cc3)c3ccccc23)cc1S(=O)(=O)NCC1CCCO1 (configuration not stated),1,x,x,x,x,2585,-6
COc1ccc(NS(=O)(=O)c2ccc(NC(=O)C(CCSC)NC(N)=O)cc2)cc1 (configuration not stated),18,4.3,4,15,7,5833,-21
COc1ccc(C(=O)C23CN4CN(CN(C4)C2)C3)cc1,x,3.6,16,6,3,4347,-12
O=C(CSc1nccn1-c1ccccc1)c1ccc(Br)cc1,-2,4.5,x,x,-7,5515,-9
O=C(NCC(c1cccs1)N1CCOCC1)c1ccccc1NS(=O)(=O)c1cc([N+](=O)[O-])ccc1Cl (configuration not stated),17,13,6,11,-1,2268,-14
CCc1ccccc1N(CC(=O)N1CCc2ccccc2C1)S(C)(=O)=O,0,4.4,9,9,3,3955,-8
C=CCc1cc(C=O)cc(OC)c1OCc1ccc(Cl)cc1,-8,-4.1,x,x,86*,2801,10
O=C(CN1C(=O)C2CCCCC2C1=O)OCn1nnc2ccccc2c1=O (configuration not stated),4,3.6,18,6,-1,1977,14
CC1(C)CC(=O)c2c(nc3ccccc3c2N)C1,-6,9.4,9,13,-2,3252,-14
CNC[C@H](CC1CCCCC1)NC[C@H](Cc1ccccc1)NCCC12CC3CC(CC(C3)C1)C2,69*,x,x,x,x,2895,5
C/C(N)=C(/C#N)C(=O)CSc1nn(-c2ccc(Cl)cc2)c(=S)s1,3,-2.3,19,1,-5,2902,-31
CC(NC(=O)c1ccc(F)cc1)c1ccc2c(c1)CCCC2 (configuration not stated),-7,-9.6,x,x,-16,3205,-16
Cc1cc(C)nc(SCCCn2c(=O)[nH]c3ccccc32)n1,1,4.0,-3,6,9,16659*,-1
CCn1c(O)c(C=Nc2ccc(S(N)(=O)=O)cc2)c(=O)[nH]c1=S,-5,6.7,12,1,-1,2545,-20
O=C(CCc1ccccc1)Nc1ccnn1C1CCN(Cc2ncc[nH]2)CC1,-2,3.5,8,5,5,5411,-3
CCOc1cc([N+](=O)[O-])cc2c1C(=O)Nc1ccccc1O2,-1,-2.9,-2,13,11,3614,-24

# (cont.)
SMILES,BJeLR lethal,RN4220 kill,Mtb hypoxia inh,Mtb hypoxia inh growth,Sa ugtP lethal,Autofluor counter,PrP UTR inh
Cc1nc2nc(C)c(NS(=O)(=O)c3ccc(C4CCCCC4)cc3)c(=O)n2[nH]1,-3,3.5,10,11,7,2905,-20
CCC1=C2CC[C@H]3C(=O)N(c4ccccc4)C(=O)[C@H]3[C@H]2[C@@]2(C)C(=NCc3ccccc3)OC(=O)N2C1=O,-1,x,x,x,x,3116,76*
O=C(O)C1CC1C(NP(=O)(c1ccccc1)c1ccccc1)c1ccccc1 (configuration not stated),x,0.3&5.2,4&8,7&4,-1&-4,x,x
O=C(CN1CCN(c2ncccn2)CC1)NCc1ccccc1,3,-9.1,6,-2,4,2506,-9
CCCc1cc(=O)[nH]c(SCC(=O)c2cc(C)n(CC3CCCO3)c2C)n1 (configuration not stated),x,3.4,2,3,3,3854,-11
COc1ccc(C(=O)C2CCCN(Cc3cn[nH]c3-c3ccccc3)C2)cc1OC (configuration not stated),-4,1.3,6,6,2,4454,-1
O=S(=O)(Nc1nc2ccccc2nc1NCCO)c1cccc(Cl)c1,3,-1.2,5,4,-16,4174,5
Nc1nonc1C(=O)N1CCCCC1,-3,-0.8,10,11,4,4362,-8
CSCCC(NC(=O)COc1ccccc1)C(=O)N1CCCCCC1 (configuration not stated),x,2.6,5,-1,10,8215,16
Cn1cc(C(=O)NP(=O)(N2CCOCC2)N2CCOCC2)c2ccccc21,-2,2.4,-1,1,10,2230,-11
O=C(c1ccc(Cl)cc1)C1CCCN(Cc2ccc(Oc3ncccn3)cc2)C1 (configuration not stated),-5,1.7,-9,4,5,3409,6
COc1ccc(C(=S)N2CCOCC2)cc1OC(=O)c1ccc([N+](=O)[O-])cc1[N+](=O)[O-],7,2.5,13,9,24,3603,-9
Cc1cc(C)nc(SCC(=O)NN=Cc2cccc([N+](=O)[O-])c2)n1,x,5.0,-5,-3,-1,x,x
